Bioassay records as filed in PubChem BioAssay.
D2 PAM: human D2 receptor positive allosteric modulation. 360,000 compounds, 0.23% hits. P14416. potentiation, % (concentration not given with the values). DiscoveRx D2 beta-arrestin cells, luminescence, 90 min; 100% = 57 uM dopamine signal; active = potentiation of 50% or more; inconclusive = 30% to 50%; inactive = 30% or less;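 note: tested on top of an EC20 dose of dopamine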
Target sequence (P14416 whole entry, looked up): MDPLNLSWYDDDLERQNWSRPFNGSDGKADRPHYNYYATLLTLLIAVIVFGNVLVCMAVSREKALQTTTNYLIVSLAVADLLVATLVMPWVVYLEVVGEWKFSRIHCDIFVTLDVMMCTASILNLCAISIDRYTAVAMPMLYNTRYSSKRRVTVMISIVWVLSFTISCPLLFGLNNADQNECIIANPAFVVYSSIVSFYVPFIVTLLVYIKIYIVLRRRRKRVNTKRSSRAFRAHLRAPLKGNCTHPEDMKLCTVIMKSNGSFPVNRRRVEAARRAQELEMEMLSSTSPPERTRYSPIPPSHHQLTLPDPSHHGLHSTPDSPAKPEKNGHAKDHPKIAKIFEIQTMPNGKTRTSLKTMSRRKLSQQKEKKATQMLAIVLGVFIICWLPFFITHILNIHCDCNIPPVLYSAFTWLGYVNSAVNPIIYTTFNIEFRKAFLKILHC
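PathHunter beta-arrestin assay in DiscoveRx D2 cells. Compounds were added with an EC20 of dopamine (50 nM final) for 90 min at 37 deg C. Luminescence was read 1 h after detection reagent, with 57 uM dopamine as the EC100 control.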
Sfp inh: inhibitors of Bacillus subtilis Sfp phosphopantetheinyl transferase; Q9F4F7; AID 1490; 310,000 compounds, 3.5% hits; Biochemical Sfp PPTase activity, qHTS; Potency, µM, inactives show max response, negative = inhibition, most hits filed as inhibitors; active = well fitted inhibition curve with a large enough effect; inconclusive = small, poorly fitted or top-dose-only effect, or another doubt; inactive = no such curve, though single readings can be large or run the other way;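 note: the enzyme is Sfp with the accession as filed and its product quenches rhodamine fluorescence; potency is the fitted concentration of half-maximal effect; 0% = enzyme reaction without inhibitor and -100% = no enzyme wells; top concentration of the series not given in the record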
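Compounds were incubated with enzyme (final 15 nM) for 15 min at room temperature before substrate addition started the reaction. Fluorescence at 525 nm excitation, 598 nm emission was recorded immediately and after 30 minutes.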
ClpP mod: qHTS Assay for Activators of ClpP; ATP-dependent Clp protease proteolytic subunit (Bacillus subtilis (strain 168)), P80244; purified B. subtilis ClpP, FRET peptide cleavage, 20 min; Potency, µM (doses to about 57.5 µM), for the others: at the top dose activity change, negative = active; 340,000 compounds, 1.9% hits; active = well fitted falling curve with a large enough effect; inconclusive = small, poorly fitted or top-dose-only effect; inactive = no such curve, though single readings can be large or run the other way; note: potency is the fitted concentration of half-maximal effect; the source files actives as falling curves though it sought activators and does not explain the sign; nearly all actives have a fitted effect of over 65% in size; many hits overshoot -100%
Target sequence (P80244 whole entry, looked up): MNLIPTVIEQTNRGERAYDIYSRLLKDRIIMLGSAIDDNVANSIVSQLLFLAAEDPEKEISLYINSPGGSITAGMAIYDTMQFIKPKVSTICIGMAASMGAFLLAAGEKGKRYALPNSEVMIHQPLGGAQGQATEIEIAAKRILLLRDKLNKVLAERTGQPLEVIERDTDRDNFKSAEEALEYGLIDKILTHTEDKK
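Purified B. subtilis ClpP, 10 microg/mL final in Tris/HCl pH8 with KCl, BSA, glycerol and Tween-20, cleaved an Abz/nitrotyrosine-quenched decapeptide. Fluorescence (ex 320, em 430) was read at 0 and 20 min at room temperature. Delta was normalized to 5.8 microM ADEP and DMSO/no-enzyme controls.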
gsp antag: gsp mutant antagonism; gsp-mutant cells, cAMP HTRF, 30 min; control for the full effect not named in the record; Potency, µM (titrated, usually from 76.9 µM), for the others: at the top dose activity change, negative = inhibition, most hits filed as inhibitors; 340,000 compounds, 0.4% hits; AID 624288; active = falling curve of any shape with a large fitted effect; inconclusive = falling curve, mostly with a smaller effect; inactive = flat or rising curve; cell line not stated here;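 note: intracellular cAMP measured with PDE inhibitor Ro 20-1724 present during compound exposure; potency is the fitted concentration of half-maximal effect; % is set by controls: 0 for no effect and ±100 for the full control effect; nearly all actives have a fitted effect of over 65% in size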
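Measurement of cellular cAMP by homogeneous time-resolved fluorescence following a 30 min compound exposure at 37C. The PDE inhibitor […] was present throughout; the assay buffer was DPBS with 0.05% BSA and 0.005% Tween 20.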
Menin-MLL FL inh: inhibitors of human menin-MLL interaction, wild-type MLL peptide; FP activity change, % at 61.4 µM; 290,000 tested, under 10 active; Fluorescence polarization, fluorescein-MLL peptide displacement from menin; inconclusive = falling polarisation curve, or a change in total fluorescence; inactive = total fluorescence flat and polarisation flat or rising; no compound was filed as active; the % refers to the polarisation; negative = inhibition;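 note: % of control where 0% means no effect; inhibitors lower the polarisation; unlabelled MLL peptide was the positive control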
TRPV1 PAM: enhances activation of the human vanilloid receptor TRPV1; Q8NER1; TRPV1-expressing cells, Fluo-8 calcium influx, capsaicin EC20 potentiation; host cell line not named in the record; control for the full effect not named in the record; potentiation, % at 8.33 µM; 320,000 compounds, 0.02% hits; active means potentiation above 80%; inconclusive means 30% to 80%; inactive means below 30%; note: 0% is about no effect
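Cells expressing TRPV1 were dye-loaded with Fluo-8 and read kinetically: 10 s baseline, 3 min after compound (agonist portion), then 2 min after EC20 capsaicin (allosteric enhancer portion). Calcium-bound dye fluorescence at 480/520 nm.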
gsp ag: gsp mutant agonism | Potency, µM (titrated, usually from 76.9 µM), for the others: at the top dose activation (cAMP increase), actives largely listed as activators | gsp mutant cells, cAMP HTRF, 30 min; control for the full effect not named in the record | AID 624287 | 340,000 compounds, 0.13% hits; active = well fitted activation curve with a large enough effect; inconclusive = small, poorly fitted or top-dose-only effect, or another doubt; inactive = no such curve, though single readings can be large or run the other way; cell line not stated here;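 note: phosphodiesterase inhibitor Ro 20-1724 added with compounds to block cAMP breakdown; potency is the fitted concentration of half-maximal effect; nearly all actives have a fitted effect of over 60% in size; about a fifth of the inactives were tested at one dose only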
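Cells in DMEM/10% FBS with G418 were pretreated with compounds in DMSO plus […] (300 uM stock) for 30 min at 37C. cAMP was measured by HTRF (cAMP-d2 plus anti-cAMP antibody-K) after 30 min at room temperature.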
* = called active by the depositor; ? = inconclusive; nt = no result given; & = joins results of further samples; [ ] = another dose, or the depositor's remark.

canonical_smiles	D2 PAM	Sfp inh	ClpP mod	gsp antag	Menin-MLL FL inh	TRPV1 PAM	gsp ag
O=C(COc1ccc(Br)cc1Cl)NCCCN1CCOCC1	-23	14%	-0.7%	8%	nt	-7	2%
COc1ccc(OC)c(NC(=O)c2cccc(S(=O)(=O)N(Cc3ccccc3)c3ccccc3OC)c2)c1	-2	18%	-13%	-2%	-0.3	12	0%
Cc1ccc(CSc2nc3ccccc3c(=O)n2C)cc1	-6	-7%	95%	-45%	0.4	2	7%[15.4 µM]
O=C(Nc1ccncc1)Nc1cccc(Cl)c1	-17	7%	0.1%	5%	-4.0	-5	-14%
C/C(=C\c1ccc(C(=O)O)cc1)c1ccc2c(c1)C(C)(C)CCC2(C)C	-5	40%&13%&5%&12%	-22%	1%	1.0&5.3&-11	10	nt
Cc1ccsc1CNC1CCCCC1	-3	9%	-0.3%	0%	-3.3	-27	10%
Cc1cccc(C)c1Nc1nnc(SCC(=O)NCCCN2CCCC2=O)s1	-3	nt	-1.2%	3%	nt	nt	4%
O=C(O)C[C@H]1c2ccccc2S(=O)(=O)N1C1CCCCC1	-1	nt	-0.5%&-1.9%	3%	nt	nt	15%
CC(=O)Nc1ccc(/C=N/Nc2nc3ccccc3s2)cc1	-13	-8%	-16%	-5%	9.5	23	-25%
C[C@@H]1CCC(=O)N(C[C@@H](C)CC#N)CC1	0	22%	-0.1%&-8.5%	11%	-0.3	1	-21%
O=C(Nc1ncn[nH]1)c1ccc(S(=O)(=O)N2CCOCC2)cc1	-15	12%	-0.4%	15%	0.7	1	17%
Cc1cccc(NC(=O)CC2CCC2)c1	-13	6%	-8.5%	3%	1.2	-14	1%
CSc1ccccc1C(=O)NCc1ccccc1	2	12%	nt	-18%	-1.5	-6	-9%[15.4 µM]
COc1ccc(-c2nc3n(c(=O)c2C#N)CCS3)cc1OC	-55	1%	-4.4%	-2%	-0.4	2	-55%[inhibitor]
CC(C)C(c1nnnn1C1CCCC1)N(C)C1CCCCC1 (stereo unspecified)	-20	3%	0.2%	-8%	2.4	-12	17%
Nc1nc(CN2CCC(Cc3ccccc3)CC2)nc(Nc2ccccc2)n1	-40	14%	1.4%	8%	2.1	4	25%
COc1ccc(-c2cc(-c3ccc(F)cc3)nc(N3CCN(C)CC3)n2)cc1	-23	-10%	-25%	19%	0.2	-4	-2%
CC(Sc1nc(-c2ccccc2)cc(C(F)(F)F)n1)C(=O)N1CCCCC1 (stereo unspecified)	-8	-11%	-3.3%	?	1.9	-19	-29%
Cc1ccc([N+](=O)[O-])cc1N=C(c1cccc(Br)c1)N1CCOCC1	-15	1%	1.5%	-27%	-3.5	-10	8%
COc1ccccc1OCC(O)CN1CCN(C(=O)c2ccccc2)CC1 (stereo unspecified)	-27	6%	-0.6%	4%	0.0	0	2%[15.4 µM]
COCCNC(=O)CCc1ccc(S(=O)(=O)Nc2ccc(C)cc2)cc1	-11	79µM*	-1.5%	3%	-1.7	1	2%
CN(C(=O)C1CCCC1)C1CCS(=O)(=O)C1 (stereo unspecified)	5	nt	-3.1%	13%	nt	-3	-1%
O=C(CSc1nnc(-c2ccc3c(c2)OCO3)n1-c1ccccc1)c1ccccc1	0	5%	-0.4%	27%	3.4	-7	9%
Cc1cccc(C(=O)NCC(=O)N2CC(=O)Nc3ccccc32)c1	-8	8%	-1.1%	-5%	-0.1	2	-33%[inhibitor]
C=C(C)CN(CC)C(=O)CC1C(=O)NCCN1Cc1c(F)cccc1Cl (stereo unspecified)	-6	8%	0.9%	-2%	0.6	21	-6%
O=C(CSc1nccc(=O)[nH]1)NCc1ccc2c(c1)OCO2	-23	1%	0.5%	2%	nt	5	-44%[inhibitor]
CCOC(=O)CNC(=S)N(Cc1ccccc1F)C1CCCCC1	-2	22%	-25%	-16%	-1.1	-8	2%[15.4 µM]
C=CCN=C1S/C(=C/c2cccc([N+](=O)[O-])c2)C(=O)N1CC=C	1	-17%	0.2%	-6%	1.3	-3	2%
COc1ccc(NC(=O)N2CCCc3ccccc32)cc1	0	14%	-0.2%	-1%	0.6	12	-9%
O=C(COc1ccc(Cl)cc1Cl)NCCCNC(=O)c1cnccn1	-6	16%	nt	0%	3.1	10	-5%
COc1ccc(C(=O)NCCCNC(=O)c2cccnc2)cc1Br	-13	21%	1.0%	-1%	-4.3	21	16%
CCCCNC(=O)C1CC(=O)N(C2CCCC2)C1 (stereo unspecified)	-7	15%	-1.8%	12%	-1.4	-5	23%
Cc1cc(=O)c2ccccc2n1Cc1ccccc1	-12	5%	nt	6%	-1.0	-5	3%
CC(=O)C1=C(C)NC(SCC(N)=O)=C(C#N)C1CC(C)C (stereo unspecified)	-6	7%	nt	3%	4.4	2	?
O=C(COC(=O)c1ccc(Cl)c(S(=O)(=O)NCc2ccccc2)c1)NC1CC1	-8	nt	-0.7%	1%	nt	-9	11%
C/C(=N\NC(=O)c1nn(C)cc1Br)c1cccc(NC(=O)c2ccncc2)c1	0	15%	-1.0%	-7%	3.8	4	8%
Cc1ccccc1NC(=O)Cc1nc(COC(=O)CCc2ccccc2)cs1	0	nt	-7.5%	1%	nt	-11	?
CC(Oc1ccc(F)cc1)C(=O)Nc1ccc2ccccc2c1 (stereo unspecified)	-11	-4%	-1.8%	0%	2.2	-1	10%
Cc1ccc(NC(=O)CSc2nc3ncc(Br)cc3[nH]2)cc1C	-14	1%	-0.8%	-23%	0.1	-9	19%
O=C(CCc1ccccc1)Nc1ccccc1C(F)(F)F	-4	19%	nt	9%	2.7	-5	-1%[15.4 µM]
COc1ccc(CN2CCC(=O)N([C@H](CO)c3ccccc3)CC2)cc1OC	-10	5%	2.0%&0.3%	10%	0.5	-4	-1%
COc1cccc(C(=O)N/N=c2/oc3ccccc3cc2C(N)=O)c1	5	4%	nt	-12%	4.0	3	6%
O=C(NC(=S)NCc1ccc(F)cc1)c1ccccc1	-13	?	-1.6%	10%	1.0	-9	-12%
CCc1cc2c(=O)n(-c3ccc(C)cc3)cnc2s1	3	-3%	-3.8%	-4%	-1.7	-3	-32%[inhibitor]
O=C1CC(N(CCc2ccccc2)C(=S)Nc2ccccc2)C(=O)N1c1ccccc1 (stereo unspecified)	1	13%	1.3%	-12%	-1.8	-6	-46%[inhibitor]
Cc1onc(-c2ccccc2)c1C(=O)NC(C)c1ccc2c(c1)OCO2 (stereo unspecified)	-12	2%	2.5%	-16%	nt	3	1%
Cc1ccccc1NC(=O)Cc1nc(COC(=O)c2ccc(Cl)nc2)cs1	7	nt	nt	-10%	nt	2	16%[15.4 µM]
COc1cccc(OCc2cc(C(=O)NCCc3cccc(C)n3)no2)c1	-4	15%	nt	0%	-2.0	-7	24%[15.4 µM]
Cc1cccc(Nc2nc(N)nc(CN3CCC(C)CC3)n2)c1C	0	-11%	0.5%	5%	1.6	28	24%
O=C(CNC(=O)N1CC(=O)Nc2ccccc21)NCc1cccc(Cl)c1	-12	20%	0.5%	19%	nt	3	9%
O=C(Nc1cccnc1Oc1ccc(Cl)cc1)c1cccc2ccccc12	-2	0%	nt	-15%	5.9	nt	-28%
Cc1ccc(-n2c(C)cc(C(=O)COc3cccnc3[N+](=O)[O-])c2C)cc1	-6	-3%	0.2%	-31%	4.8	-2	13%[15.4 µM]
c1ccc(-n2nnnc2-c2cccc3ccccc23)cc1	15	nt	-9.9%	-10%	nt	nt	-38%[inhibitor]
CCNC(=S)N1CCN(S(=O)(=O)/C=C/c2ccccc2)CC1	1	-3%	nt	1%	-1.6	3	-10%
C/C(=C\C(=O)c1ccc(Cl)s1)N(C)C	-1	12%	-0.3%	7%	-0.2	17	2%
O=C(Oc1ccccc1[N+](=O)[O-])c1cccnc1	-8	-18%	-2.4%	-16%	0.3	?	21%
COCCc1nc2ccc(C(=O)N(C)Cc3cccc(-n4cccn4)c3)cc2o1	-18	3%	-2.0%	-5%	nt	7	-10%
CCNc1nc(NCC)n2c(SCc3nc4ccccc4c(=O)[nH]3)nnc2n1	-29	14%	0.2%	6%	0.6	1	-32%[inhibitor]
NC(=O)c1ccc(NCC2COc3ccccc3O2)c([N+](=O)[O-])c1 (stereo unspecified)	-9	6%	nt	-23%	-1.3	12	?
Cc1cccc(-c2noc(CN(C(C)C)S(=O)(=O)c3ccc(F)cc3)n2)c1	-29	15%	-1.2%	-6%	3.5	-7	-6%

Next compounds.
canonical_smiles	D2 PAM	Sfp inh	ClpP mod	gsp antag	Menin-MLL FL inh	TRPV1 PAM	gsp ag
COC(=O)C1(C(O)C(=O)c2ccc(C)cc2C)CCCCC1 (stereo unspecified)	-4	7%	-1.8%	9%	0.4	7	-13%
Cc1c(C(=O)Nc2ccccc2Cl)oc2ccc(S(=O)(=O)N3CCC4(CC3)OCCO4)cc12	-3	-6%	?	-8%	0.0	9	19%
Clc1cccc(-c2nnc(SCc3nc4ccccc4[nH]3)n2Cc2ccco2)c1	-18	8%	-4.2%	-1%	5.8	9	14%
COc1ccc(C2=NOC(Cn3nc(C(=O)NCc4cccc(Br)c4)cc3-c3ccccc3)C2)cc1 (stereo unspecified)	-3	nt	-3.7%	-9%	nt	nt	22%
Cc1cc(C)cc(Oc2ncnc3c2ncn3Cc2c(Cl)cccc2Cl)c1	-11	-5%	-1.6%	-9%	-1.5	3	8%
COCCN1C=C(C(=O)OC)C(c2ccccc2C(F)(F)F)C(C(=O)OC)=C1	3	17%	-5.8%	-4%	1.7	-16	-9%[15.4 µM]
FC(F)(F)c1ccc(-c2cccc3c2C2CC3CCN2Cc2ccccc2)cc1 (stereo unspecified)	-6	nt	?	-7%	nt	nt	nt
FC(F)(F)c1cc(C(F)(F)F)n2nc(-c3sccc3-n3cccc3)cc2n1	-4	8%	-0.8%	0%	1.2	-14	-6%
O=C(Nc1ccc(N2CCOCC2)cc1)c1ccc(S(=O)(=O)NCc2ccco2)cc1	-6	12%	nt	15%	?	-7	-5%[15.4 µM]
O=C(CSc1nnc(COc2cccc3cccnc23)o1)N1CCCC1	-5	16%	0.5%	11%	4.7	-5	-7%[15.4 µM]
